eIF4H inh = human eIF4H binding inhibitors, primary screen, translation initiation inhibitor project, biochemical, uHTS, fluorescence polarization; eIF4H fluorescence polarization binding assay; inhibition, % at 35 µM; 290,000 tested, 0.94% active;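 active means 50% or more with normal probe brightness, or confirmed in later tests; about a fifth of its hits are not listed in these tables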;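 further: calls also rest on retests at 20 µM and on dose response follow-up; 0% = protein and probe with vehicle and 100% = probe without protein; strong numbers were not always called active; many hits fall short of the cut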
PABP polyA inh = PABP poly(A) RNA binding inhibitors, primary screen, biochemical, fluorescence polarization, uHTS; inhibition, % at 35 µM; 290,000 tested, 1% active;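 active means 50% or more with normal probe brightness, or confirmed in later tests; about a fifth of its hits are not listed in these tables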;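 further: calls also rest on retests at 20 µM and on dose response follow-up; controls were probe without protein and protein plus probe with vehicle; some compounds called inactive have numbers as strong as hits; many hits fall short of the cut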
Rce1 inhib = yeast Rce1p protease inhibitors, primary screen, biochemical, fluorescence, cell-free homogeneous; 290,000 tested, 0.27% active; AID 2563, 2010; yeast membranes, quenched prenylated peptide cleavage fluorescence; calls only;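 active means fall in fluorescence gain of 50% or more versus controls, with final raw signal at or below 3038400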;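 further: plate controls were neutral control wells for no effect and wells lacking membranes for full effect; tested at 10 µM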
Target sequence (Q03530 whole entry, looked up): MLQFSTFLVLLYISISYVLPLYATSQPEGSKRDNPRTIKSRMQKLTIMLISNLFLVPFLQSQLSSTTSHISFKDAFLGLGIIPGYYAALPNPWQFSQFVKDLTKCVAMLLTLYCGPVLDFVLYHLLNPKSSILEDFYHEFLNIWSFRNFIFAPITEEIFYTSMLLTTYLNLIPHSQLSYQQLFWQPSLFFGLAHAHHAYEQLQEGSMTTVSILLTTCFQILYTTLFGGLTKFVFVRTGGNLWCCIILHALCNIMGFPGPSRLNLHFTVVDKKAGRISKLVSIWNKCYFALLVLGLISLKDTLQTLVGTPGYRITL
UUG fidelity = modulators of yeast start codon fidelity, primary screen, whole organism, S. cerevisiae, single point, plate reader; S. cerevisiae UUG-firefly luciferase reporter, luminescence/redox ratio; activity score, % at 18.7 µM; 350,000 tested, 0.13% active; AID 602363, 2012;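 active means replicate mean at a twofold rise or more, about +100% in these data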;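 further: firefly luciferase made from a UUG start codon reports start codon fidelity; reporter light over untreated wells divided by growth signal over untreated wells; some hits fall short of that in this replicate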
MT1-MMP act inh = blockers of MT1-MMP proenzyme processing, primary screen, HT1080 RFP-PRO-GFP cells, GFP/RFP fluorescence; 360,000 tested, 0.061% active; Matrix metalloproteinase-14 (Homo sapiens), P50281; GFP/RFP ratio change, % at 20 µM; AID 651647, 2012; GFP/RFP ratio fluorescence, overnight; percent of plate control window, DMSO zero;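 active means GFP/RFP ratio change of at least 30% with cell ATP level not reduced by more than half and red fluorescence within 50% of control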; further: strong numbers were not always called active
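Compound: 20 µM single dose, 1% DMSO / System: HT1080 RFP-PRO-GFP cells / Controls: DMSO and RFP-L50D-GFP cell wells / Read-out basis: GFP/RFP fluorescence ratio / Schedule: overnight compound exposure at 37 °C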
HIV Env fusion = inhibitors of HIV-1 Env-driven cell-cell fusion, primary screen, HeLa-JRFL effector, CEM21 target cells, luciferase; inhibition, % at 12.3 µM; 360,000 tested, 1.1% active;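 active means mean replicate inhibition score of at least 50 and every replicate individually at or above 50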;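 further: 0% = plate neutral controls and 100% = maraviroc near 300 nM; one replicate is shown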
CSC inhib = cancer stem cell viability inhibitors, primary screen, luminescence; cancer stem cell-like cells viability; inhibition, % at 7.5 µM; 300,000 tested, 1.1% active; AID 2717, 2010;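 active means mean at 75% or more and at least half the replicates too; tested in HMLE shEcad cells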;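 further: 0% = median of negative and 100% = median of positive control wells; the first replicate is given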
MT1-MMP act inh RFP = also measured in MT1-MMP act inh; calls as there; RFP signal change, %; measured here: RFP expression control read;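 0 = vehicle wells; hits needed this value within 50% of zero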
The depositor's hits bear a star; i = inactive; . = not tested or not shown.

smiles,Rce1 inhib,PABP polyA inh,UUG fidelity,HIV Env fusion,MT1-MMP act inh RFP,MT1-MMP act inh,eIF4H inh,CSC inhib
CC(=O)N(Cc1ccc(Cl)cc1)c1cnccn1,i,-10,-9,7,-1,1,-3,13
Cc1ccc(C)c(CN2CCC(CNC(=O)Nc3ccc(F)c(Cl)c3)CC2)c1,i,1,8,33,-10,4,2,18
CCOC(=O)c1sc2nc(C(C)C)c3c(c2c1N)CCC3,i,12,-19,15,0,1,-5,-4
CCC(Oc1ccccc1)C(=O)Nc1ccc(S(=O)(=O)NCC2CCCO2)cc1 (stereo not drawn),i,-1,4,24,-6,1,5,-5
CCOC(=O)N1CCN=C1SCc1ccc(Cl)c(Cl)c1,i,3,-6,-1,1,0,-7,18
CN(C)/C=N/C(=S)Nc1cc(Cl)cc(Cl)c1,i,-3,-23,-11,-4,0,-6,-2
CCN(CC)CC(=O)Nc1ccc(-c2ccc(NC(=O)CN(CC)CC)c(OC)c2)cc1OC,i,3,.,-8,-1,2,-3,-12
O=C(O)c1ccccc1CSc1ccccn1,i,16,-5,13,-2,-1,-13,5
O=C1c2cnccc2CN1Cc1ccccc1,.,-3,1,-14,4,0,-5,3
N#CCSc1nc(-c2ccccc2)c2cc(Cl)ccc2n1,i,3,-2,2,-4,-2,-4,6
O=C(OCC(=O)N1CCCC1=O)c1cc(Cl)ccc1O,i,.,-19,8,2,1,.,-8
Cc1ccc(NC(=O)CSc2nnc(Cn3cnc4ccccc43)o2)c(C)c1,i,-4,-20,-43,1,-3,-11,-12
Cc1cc2[nH]c(=O)cc(-c3ccccc3)n2n1,i,3,-10,-63,-1,2,-6,-6
COc1ccc(CNS(=O)(=O)c2ccc3c(c2)N(C)CCO3)cc1,i,.,-12,16,-11,-3,.,-14
NC(=O)C1(N2CCCCC2)CCN(C(=O)c2ccc(C#Cc3ccccc3)o2)CC1,i,1,-19,.,-5,-3,2,-11
COc1cccc(OCC(O)CN2CCOCC2)c1 (stereo not drawn),i,0,-5,.,5,-4,2,-11
CCN(CC)C(=O)CN1C(=O)C2(NC(=O)c3ccccc3N2)c2ccccc21 (stereo not drawn),i,-5,-14,-11,2,-1,-2,-8
CCOC(=O)C1=C(O)/C(=C/c2ccc(OCC(=O)Nc3ccc(C)cc3)cc2)N=C1C,i,-20,-5,8,-4,-2,12,3
Oc1ccc(/C=N/Nc2ccnc3cc(Cl)ccc23)cc1O,i,-28,.,-15,-3,8,-1,33
O=C(C1Cc2ccccc2O1)N1CCCCC1 (stereo not drawn),i,6,5,0,4,1,-4,0
O=C(NCc1ccncc1)C(=O)NC1CC1,i,-2,.,-1,3,5,-9,5
O=C(COC(=O)c1ccc([N+](=O)[O-])s1)NC(=O)NCc1ccccc1,i,2,-2,30,1,0,-10,1
CCOC(=O)CN(C)C(=O)C1CCCN1C(=O)OC(C)(C)C (stereo not drawn),i,.,4,0,2,4,.,-6
COc1ccc2[nH]cc(CCNC(=O)c3ccccc3Cl)c2c1,i,7,-5,-1,1,-1,-9,4
COc1ccc(-c2[nH]ncc2-c2cscn2)c(O)c1,i,-2,.,4,2,2,0,-5
Fc1ccccc1N1CCN(C2CCCN(Cc3ccccc3C(F)(F)F)C2)CC1 (stereo not drawn),i,-11,2,0,-3,2,-5,8
COc1ccc(C(=O)c2c[nH]c(C(=O)NCc3ccco3)c2)cc1,i,2,-14,.,-4,5,-1,15
CCOc1ccc2oc(-c3ccccc3)c(C(=O)N3CCN(C)CC3)c2c1,i,-11,1,-80,3,0,-7,-9
Cc1csc(NC(=O)c2ccc(Cl)nc2)n1,i,-3,-4,4,3,-1,-1,2
CC(=O)NCc1ccc(-c2csc(NC(=O)CCc3nc4ccccc4c(=O)[nH]3)n2)s1,.,.,9,18,4,-3,.,-18
CCN1C[C@@H]2[C@@H]3C(=O)N(Cc4ccccc4)C(=O)[C@@H]3[C@](CC)(C1=O)N2C(=O)c1ccc(Br)cc1,.,.,6,-8,2,-6,.,.
CC(=Nc1ccccc1)C1=C(O)C(Cc2cccc(F)c2)NC1=O (stereo not drawn),.,.,-11,-31,1,16,.,.
COc1ccc(C(=O)CCC(=O)O)cc1,i,0,-5,0,1,1,-6,-4
Cc1ccc(-c2cnc(C(O)c3ccc(C)cc3)[nH]2)cc1 (stereo not drawn),.,.,-25,14,4,4,.,.
C=CCC1c2cccc(C(=O)O)c2C(=O)N1c1ccc(F)cc1 (stereo not drawn),i,-2,-23,-16,1,-3,-10,-17
CCn1c(=O)cc(OCC(=O)NCCCN2CCC(C)CC2)c2ccccc21,i,-2,.,-2,-1,5,2,-3
COc1ccc(NC(=O)CCc2nnc3ccc(N4CCN(c5cccc(OC)c5)CC4)nn23)cc1,i,1,-6,1,-7,1,1,-10
Cc1ccccc1C(=O)NCC(=O)OCCOc1ccc(C(C)C)c(C)c1,i,.,15,-84,-2,-2,.,32
Cc1ccc(NC(=O)C2CCCO2)c(Br)c1 (stereo not drawn),.,.,-19,-13,0,0,.,9
CCSc1ccccc1C(=O)Nc1nncs1,i,0,-8,-82,9,2,-11,0

Compound profiles (already shown):
O=C(C1Cc2ccccc2O1)N1CCCCC1 (stereo not drawn) across the screens: Rce1 inhib = i; PABP polyA inh = 6; UUG fidelity = 5; HIV Env fusion = 0; MT1-MMP act inh RFP = 4; MT1-MMP act inh = 1; eIF4H inh = -4; CSC inhib = 0
CCOC(=O)c1sc2nc(C(C)C)c3c(c2c1N)CCC3 across the screens: Rce1 inhib = i; PABP polyA inh = 12; UUG fidelity = -19; HIV Env fusion = 15; MT1-MMP act inh RFP = 0; MT1-MMP act inh = 1; eIF4H inh = -5; CSC inhib = -4
CCN(CC)C(=O)CN1C(=O)C2(NC(=O)c3ccccc3N2)c2ccccc21 (stereo not drawn) across the screens: Rce1 inhib = i; PABP polyA inh = -5; UUG fidelity = -14; HIV Env fusion = -11; MT1-MMP act inh RFP = 2; MT1-MMP act inh = -1; eIF4H inh = -2; CSC inhib = -8

Additional structures
smiles,Rce1 inhib,PABP polyA inh,UUG fidelity,HIV Env fusion,MT1-MMP act inh RFP,MT1-MMP act inh,eIF4H inh,CSC inhib
Cc1onc(-c2ccccc2)c1C(=O)NCCc1ccc(S(N)(=O)=O)cc1,i,2,-5,14,-6,-3,-4,.
OC[C@@H]1CN(Cc2ccc(F)cc2)C[C@H](n2cnc3c(NCc4ccc(F)cc4)ncnc32)O1,.,.,-7,17,-6,11,.,.
O=[N+]([O-])c1cc([N+](=O)[O-])c(Oc2ccc(F)cc2F)cc1NN1CCCCC1,i,-2,-19,4,0,-1,5,66
Cc1ccccc1OCC(O)Cn1c(NCc2ccco2)nc2c1c(=O)n(C)c(=O)n2C (stereo not drawn),.,8,11,.,-6,2,-1,0
CCOc1ccc(C2C(C#N)=C(C)NC3=C2C(=O)c2ccccc23)cc1 (stereo not drawn),i,5,-15,-283,1,0,-13,23
CCCCN(CC)CCNc1c(NC2CCN(C(=O)OCC)CC2)c(=O)c1=O,i,4,1,5,-1,1,2,3
Cc1cccc(OCCC(=O)Nc2ccccc2C(N)=O)c1,i,0,1,-4,-3,1,13,9
CCCCCCCCCCCC(=O)N1CC(=O)NC(=O)C1,i,2,-3,-19,2,5,-2,1

Arranged by count of non-hydrogen atoms (largest number first): some entries from above
smiles,Rce1 inhib,PABP polyA inh,UUG fidelity,HIV Env fusion,MT1-MMP act inh RFP,MT1-MMP act inh,eIF4H inh,CSC inhib
CC(=O)NCc1ccc(-c2csc(NC(=O)CCc3nc4ccccc4c(=O)[nH]3)n2)s1,.,.,9,18,4,-3,.,-18
CCOc1ccc(C2C(C#N)=C(C)NC3=C2C(=O)c2ccccc23)cc1 (stereo not drawn),i,5,-15,-283,1,0,-13,23
C=CCC1c2cccc(C(=O)O)c2C(=O)N1c1ccc(F)cc1 (stereo not drawn),i,-2,-23,-16,1,-3,-10,-17

Further records
smiles,Rce1 inhib,PABP polyA inh,UUG fidelity,HIV Env fusion,MT1-MMP act inh RFP,MT1-MMP act inh,eIF4H inh,CSC inhib
C[C@H]1CN([C@@H](C)CO)C(=O)Cc2cc(NC(=O)Cc3ccccc3)ccc2O[C@H]1CN(C)S(=O)(=O)c1cccs1,.,.,-5,99*,-3,7,.,-17
COc1ccc(NC(=O)c2c(Nc3ccccc3)sc(C(=O)c3ccc(F)cc3)c2N)cc1,i,-6,-13,91*,-21,-4,-9,38
Cc1ccc(NC(=S)N(Cc2ccccc2)Cc2cccs2)c(C)c1,i,-12,.,12,-4,0,-9,.
C=CCn1c(-c2cccn(Cc3ccc(Cl)cc3Cl)c2=O)n[nH]c1=S,i,-4,-28,-8,-6,7,-8,-16
C=CCNC(=O)CSc1nc2cc(C(=O)OCC)ccc2n1CC,i,0,1,.,-4,3,-3,0
CC(C)(C)N1CC(C(=O)Nc2ccc(C(N)=O)cc2)CC1=O (stereo not drawn),.,.,-25,-19,7,10,.,.
COC(=O)c1sccc1-n1cccc1C(=O)C(=O)N1CCOCC1,i,-7,-3,6,-1,-4,-11,-19
CSc1cccc(N2CC(C(=O)N3CCN(S(=O)(=O)c4ccccc4Cl)CC3)CC2=O)c1 (stereo not drawn),.,.,-13,.,-3,7,.,-7
O=C(Nc1ccccc1-c1nc2ccccc2s1)c1cccnc1,i,4,.,-9,-3,-10,5,-12
O=C(COC(=O)Cn1cc(C(F)(F)F)ccc1=O)NCc1ccccc1,.,.,18,-15,4,0,.,.
CCOC(=O)c1cc(-c2ccc(Cl)cc2)nc2onc(C)c12,i,-1,.,.,.,.,-2,-3
CCC(=O)Nc1nc2ccccc2n1Cc1ccc(Cl)cc1,i,-6,.,40,-5,4,3,-11
CCOc1ccccc1N1CCN(C(=S)NCc2ccccc2)CC1,i,10,-2,49,0,-2,1,-10
CNS(=O)(=O)c1ccc2ccccc2c1,i,4,.,-11,1,0,4,-4
CN1OC[C@@H]2CN(Cc3cc(Cl)cc(Cl)c3)[C@H](c3cccc(-c4ccc(C#N)cc4)c3)C[C@@H]21,.,.,-20,41,-15,-5,.,.
CCOc1ccc(-c2cncc3nccn23)cc1,.,.,0,-8,3,-1,.,.
Cc1cc(C)n(-c2ccc(C(=O)OC(C)C)cc2)n1,i,0,2,27,-3,13,-5,-39
O=C/C(=C\Nc1ccccn1)c1nc2cc(Cl)ccc2o1,i,2,-22,-29,0,-153,10,-16
Cc1ccc(-c2nc3c(cnn3-c3ccccc3)c(=O)o2)cc1,i,-6,-12,.,2,0,4,-8

The list is partial; rates above refer to the full screens.
